Assay outcomes: PubChem BioAssay, several laboratories
Mtb H37Rv – M. tuberculosis H37Rv growth inhibitors, H37Rv strain (AID 1626) | M. tuberculosis H37Rv growth inhibition; higher % means a stronger effect | one-dose inhibition, % at 10 µM; IC50 in µM for titrated hits | 220,000 compounds, 0.95% hits;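 active = confirmed in a dose series; inconclusive = inhibition above 80% but not taken into the dose series; inactive = below 80% or under 30% at every dose of the series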;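 also: bacteria incubated seven days before Alamar blue readout; 0% = bacteria only wells and 100% = bacteria with antibiotic wells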
Mtb betalactam – beta-lactam sensitization of Mtb H37Rv; M. tuberculosis H37Rv growth with meropenem, percent inhibition; hits of this screen are not shown here; inhibition, % at 25 µM; 330,000 compounds, 0.27% hits; AID 434955;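 active = about 74% or more and at least 40 points above the plate without the antibiotic, then above 30% in a dose series; inconclusive = first-round hits that could not be retested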;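 also: growth measured after seven days incubation then overnight dye step; 0% = bacteria only wells and 100% = bacteria with antibiotic; twin plates without the antibiotic show which effects depend on it; some results filed as inactive read as strong as hits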
RecA splice inh – inhibitors of M. tuberculosis RecA intein splicing. P9WHJ3. cell-free RecA intein splicing, fluorescence. inhibition, %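 (about 9 µM by stock and volumes)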. 290,000 compounds, 0.75% hits; in the data active = inhibition above about 30%; inconclusive = no clear call, values can overlap the other calls;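 also: 0% = vehicle wells and 100% = reference inhibitor control wells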
Target sequence (P9WHJ3 whole entry, looked up, canonical isoform): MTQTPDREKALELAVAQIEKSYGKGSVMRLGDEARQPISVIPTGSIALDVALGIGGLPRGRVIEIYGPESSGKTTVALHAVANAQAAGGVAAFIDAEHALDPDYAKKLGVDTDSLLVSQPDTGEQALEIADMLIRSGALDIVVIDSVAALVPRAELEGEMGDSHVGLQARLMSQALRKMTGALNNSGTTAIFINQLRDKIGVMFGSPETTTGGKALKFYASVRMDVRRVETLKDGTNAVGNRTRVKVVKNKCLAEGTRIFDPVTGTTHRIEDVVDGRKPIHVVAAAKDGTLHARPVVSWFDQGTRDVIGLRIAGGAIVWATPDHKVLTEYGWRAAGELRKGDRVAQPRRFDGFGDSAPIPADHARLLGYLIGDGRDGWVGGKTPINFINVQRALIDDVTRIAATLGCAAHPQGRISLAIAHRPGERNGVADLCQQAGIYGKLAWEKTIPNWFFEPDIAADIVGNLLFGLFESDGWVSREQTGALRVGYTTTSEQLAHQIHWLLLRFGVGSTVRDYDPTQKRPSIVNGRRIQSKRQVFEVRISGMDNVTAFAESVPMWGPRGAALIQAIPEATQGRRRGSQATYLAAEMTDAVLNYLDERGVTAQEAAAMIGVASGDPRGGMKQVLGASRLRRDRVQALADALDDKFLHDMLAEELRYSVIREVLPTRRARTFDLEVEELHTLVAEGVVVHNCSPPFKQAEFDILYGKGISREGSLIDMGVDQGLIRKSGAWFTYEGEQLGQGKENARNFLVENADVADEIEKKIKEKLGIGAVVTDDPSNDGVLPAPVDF
YopH PTP inh – YopH (Yersinia) phosphatase inhibition. fluorescence Ex485/Em525. AID 898. inhibition, %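 (about 10 µM by stock and volumes)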. 140,000 compounds, 0.16% hits;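 active = inhibition of 50% or more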;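 also: controls were vehicle for no effect and minimum signal wells for full effect; inactives centre near -20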
Arbovirus anti – blocks arbovirus infection; arbovirus infection cell-based antiviral screen; 200,000 compounds, 0.37% hits; AID 1251; inhibition, % at 10 µM;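 active = inhibition from about 30%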;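 also: bluetongue infection of BSR cells; cell survival read as ATP light after 72 h; 0% = infected wells without compound and 100% = uninfected wells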
Arbovirus anti repeat – further read-out of Arbovirus anti, marked with its call; inhibition, %; measured here: 10K subset replicate screen; many hits read low in the repeat;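 first of two repeat runs on a subset; 0% = infected and 100% = uninfected wells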
The depositor's hits bear a star; ? = inconclusive; · = not tested or not shown.

SMILES	Mtb H37Rv	Mtb betalactam	RecA splice inh	YopH PTP inh	Arbovirus anti	others
CCc1ccc(OCC(=O)NNC(=O)c2c(CC)noc2C)cc1	·	6.8	-1.4	·	·
O=C1CC(NS(=O)(=O)c2cccnc2)CN1c1ccc(Cl)cc1 (centres undefined)	·	-4.8	-1.7	·	·
COc1ccc(C(=O)C2CCCN(Cc3cc(C)c(O)c(C)c3)C2)c(OC)c1 (centres undefined)	·	4.6	-0.3	·	·
CC1CCCCC1NC(=O)CCCCCn1c(=S)[nH]c2ccsc2c1=O (centres undefined)	·	2.2	1.0	·	·
CN(C)CCNC(=O)CNC(=S)N(Cc1ccccc1)Cc1cccnc1	3.1%	-2.0	-5.8	-7.3	8.2
O=S(=O)(c1cccc(-c2n[nH]c(=S)o2)c1)N1CCOCC1	-5.0%	-6.6	0.3	·	·
Cc1nc2ccc(NC(=O)c3ccc(F)c(S(=O)(=O)N4CCOCC4)c3)cc2s1	-3.5%	8.1	-6.0	3.4	-6.8
O=C1CCN(CCc2ccccc2)CCN1[C@H](CSc1ccccc1)Cc1ccccc1	·	17.9	14.3	·	·
C/C(=N/Nc1nc(C)c(C)s1)c1cccc([N+](=O)[O-])c1	·	98.8	4.5	·	·
CN(C)CCCNCC(=O)c1c(-c2ccccc2)n(C)c2ccccc12	·	-3.1	3.8	·	·
COc1cc(SC)ccc1C(=O)OC(C)C(=O)Nc1ccc(NC(C)=O)cc1 (centres undefined)	·	5.8	2.7	·	·
Cc1cc[n+](-c2nc3ccccc3nc2C(=C=[N-])C#N)cc1	-1.7%	6.2	10.1	-27.2	0.9
O=C(Nc1ccccc1)c1ccc(-c2ccccc2Cl)o1	-7.6%	-10.0	2.4	-13.2	-1.3
CCc1ccc(C(=O)N/N=C(\C)c2cccnc2)s1	·	-2.4	-1.7	·	·
Cc1cccc(N2CCN(C(=O)Cn3cccc3C(=O)c3ccccc3)CC2)c1C	-2.1%	-4.6	8.2	-6.2	-23.5
COc1cccc(NC(=O)CSc2nnc(-c3ccc(C)cc3)o2)c1	?	84.6	0.3	-34.7	-3.4	Arbovirus anti repeat=4.1
CCOC(=O)CC(=O)CSc1ccc2nnc(-c3ccc(F)cc3)n2n1	-1.7%	0.4	-2.0	-51.5	-3.4
CSc1ccccc1NC(=O)CN1CCN(c2ccccn2)CC1	·	-8.3	5.8	·	·
Cc1ccc(S(=O)(=O)CC(=O)c2ccc3c(c2)OCCO3)cc1	-6.0%	-6.6	0.1	·	·
CC1=C(C(=O)Nc2cc(C(=O)NCCCOC(C)C)ccc2C)SCCO1	·	-2.9	-5.7	·	·

Entries from the list above that contain a Cl atom (2):
SMILES	Mtb H37Rv	Mtb betalactam	RecA splice inh	YopH PTP inh	Arbovirus anti	others
O=C1CC(NS(=O)(=O)c2cccnc2)CN1c1ccc(Cl)cc1 (centres undefined)	·	-4.8	-1.7	·	·
O=C(Nc1ccccc1)c1ccc(-c2ccccc2Cl)o1	-7.6%	-10.0	2.4	-13.2	-1.3

(next part)
SMILES	Mtb H37Rv	Mtb betalactam	RecA splice inh	YopH PTP inh	Arbovirus anti	others
O=C(N/N=C/c1ccccc1)c1ccc(N2CCCC2=O)cc1	·	-5.5	2.2	·	·
CCN(CC)CCCn1c(C)cc2c(c1=O)C(c1ccc(OC)c(OC)c1OC)C(C#N)=C(N)O2 (centres undefined)	-11.4%	-2.1	-1.4	-45.0	3.0
O=C(O)c1ccc(Nc2c3ccccc3nc3ccccc23)cc1	·	10.5	-1.2	·	·
Cn1c(=O)c2c(nc(N3CCN(Cc4ccccc4)CC3)n2CCCc2ccccc2)n(C)c1=O	-1.2%	62.7	3.8	-0.6	-4.1
CCCC(=O)Nc1ccc(-c2csc(-c3cccnc3)n2)cc1	·	1.2	-1.6	·	·
CCOc1ccc(NC(=O)C2CCCN2S(=O)(=O)c2ccc(OCC)cc2)cc1 (centres undefined)	·	34.6	4.0	·	·
O=C1Nc2ccccc2/C1=N\N=C\c1ccc(O)c(O)c1	5.2%	-2.0	-5.7	·	·
CCC1CCCCN1C(=O)CSc1nnc(-c2cccc(Cl)c2)o1 (centres undefined)	4.7%	2.8	3.7	11.6	-3.7	Arbovirus anti repeat=1.1
CCOC(=O)C1(Cc2ccc(OC)cc2)CCN(C(=O)CN2CCOC2=O)CC1	-5.4%	-13.7	3.0	·	2.8
Cc1[nH]nc2c1C(c1cccc(OC(=O)N3CCOCC3)c1)C(C#N)=C(N)O2 (centres undefined)	7.4%	-2.3	59.4*	-46.6	4.3
CC(c1ccccc1)N1C(=O)c2ccccc2C1(O)Cc1ccccc1 (centres undefined)	-8.3%	2.7	5.1	·	-8.9
CC(C)(C)C1=CC(=O)C(=O)C(C(C)(C)C)=C1	1.8%	-5.9	-4.1	-21.7	5.9
COc1cc(NC(=O)c2noc3c2CCCC3)c(OC)cc1Cl	-10.1%	-3.7	-0.7	-24.9	9.7
COc1ccc(NS(=O)(=O)c2cccc(C(=O)N/N=C/c3cn(-c4ccccc4)nc3-c3ccc(OC)cc3)c2)cc1	5.8%	-7.2	0.3	·	·
COc1ccc(OC)c(NC(=O)CSc2nnc(C3CCCCC3)n2-c2ccccc2)c1	4.8%	0.9	8.3	0.8	-13.7
COCCCNC(=O)C1CCC(CNS(=O)(=O)c2ccc(Cl)cc2)CC1 (centres undefined)	1.1%	1.1	0.7	·	-4.8
CN(NC(=O)Nc1ccc(Cl)cc1)c1ncc(C(F)(F)F)cc1Cl	-1.4%	0.3	-7.3	-4.9	·
O=c1[nH][nH]c(-c2ccccc2O)c1C(C[N+](=O)[O-])c1ccc(Cl)cc1Cl (centres undefined)	10.5µM*	100.2	13.2	-30.1	7.6
CSc1ncc2ncn(C3OC(CO)C(O)C3O)c2n1 (centres undefined)	1.4%	-5.5	-0.1	·	·
O=C(c1ccccc1)c1sc(N2CCCCCC2)nc1-c1ccccc1	12.9%	44.1	-3.4	-36.6	4.4
Cc1cc2oc(C(=O)Nc3ccc(S(=O)(=O)Nc4ncccn4)cc3)cc(=O)c2cc1Cl	·	0.8	-2.5	·	·
Cc1ccc(CNC(=O)C(=O)NCC2OCCN2C(=O)c2ccc(Cl)cc2)cc1 (centres undefined)	-7.7%	0.5	2.9	-36.5	-3.7
CC(NC(=O)NNC(=O)c1ccncc1)(C(F)(F)F)C(F)(F)F	?	99.1	·	·	5.4
CC(=O)c1cccc(NC(=O)C=C(C)C)c1	-2.1%	-3.6	0.2	-8.5	-4.8
CCOC(=O)N1CCN(c2nc(-c3cccs3)nc3ccccc23)CC1	·	14.8	-0.7	·	·
Cc1nnc(C)n1/N=C/c1ccccc1	12.2%	1.2	1.7	7.6	1.1
O=C(Nc1cccc(Cl)c1)c1ccc(=O)[nH]n1	·	-4.7	-0.9	·	·
O=C(CC(=O)N/N=C\c1c(Cl)cccc1Cl)NCc1ccccc1	-6.5%	-1.8	3.2	9.1	-7.7
COc1cccc2cc(-c3cc(=O)oc4cc(C)c(OCC(C)=O)cc34)oc12	·	-1.0	-10.7	·	·
Cc1ccc(/C=N/NC(=O)CN2CCN(Cc3ccccc3)CC2)s1	1.1%	0.4	-0.6	·	·
N#C/C(=N\Nc1ccc(Cl)cc1)C(N)=S	?	25.3	24.0	·	·
Cc1ccccc1NC(=O)CN1C(=O)c2ccccc2C1=O	·	-4.8	-2.4	·	·
O=C1NC(=O)C2C1C(c1ccccc1)N1C3C(=O)NC(=O)C3C(c3ccccc3)N21 (centres undefined)	-1.7%	-6.7	-0.9	-1.4	-4.9
CC1Nc2ccccc2C(=O)N1NC(=O)c1ccc(Br)cc1 (centres undefined)	-8.0%	-0.9	1.7	·	-6.8
CCOC(=O)C1(CCCc2ccccc2)CCN(C(=O)CCn2cnnn2)CC1	-6.9%	2.5	-0.8	·	0.8
CCc1cc(=O)n2[nH]c(C)c(-c3ccccc3OC)c2n1	-3.8%	-0.7	-0.3	-27.8	-0.1	Arbovirus anti repeat=-0.9
CC(C)c1nnc(NC(=O)c2ccc(S(=O)(=O)N3CCOCC3)cc2)s1	-4.5%	1.9	-1.6	-14.9	3.1	Arbovirus anti repeat=-2.5
CCCOC(=O)NC(CC)COC(=O)Nc1cccc(C)c1C (centres undefined)	-8.9%	-10.3	-7.0	-39.4	-0.6
CC(=O)CSc1ncnc2sc3c(c12)CCC(C)C3 (centres undefined)	11.8%	17.3	2.7	·	-11.2
O=C(CN1CCCCC1)c1ccccc1F	-9.7%	-0.6	-0.3	·	-1.3

Overlap with the part before: 4 compounds; new compounds follow.
SMILES	Mtb H37Rv	Mtb betalactam	RecA splice inh	YopH PTP inh	Arbovirus anti	others
CC(C)c1nnc(NC(=O)c2ccc(S(=O)(=O)N3CCOCC3)cc2)s1	-4.5%	1.9	-1.6	-14.9	3.1	Arbovirus anti repeat=-2.5
CCCOC(=O)NC(CC)COC(=O)Nc1cccc(C)c1C (centres undefined)	-8.9%	-10.3	-7.0	-39.4	-0.6
CC(=O)CSc1ncnc2sc3c(c12)CCC(C)C3 (centres undefined)	11.8%	17.3	2.7	·	-11.2
O=C(CN1CCCCC1)c1ccccc1F	-9.7%	-0.6	-0.3	·	-1.3
CCC(=NCC1CCCO1)c1c(O)[nH]c(=O)[nH]c1=O (centres undefined)	-12.3%	-8.0	-2.4	-48.9	3.8
CCOC(=O)C1CCCN(C(=O)C(C)(C)Oc2ccc(Cl)cc2)C1 (centres undefined)	10.6%	-1.0	·	·	9.4
COc1ccccc1/C=N/OCC(=O)NCc1ccc2c(c1)OCO2	6.6%	7.9	1.6	-40.0	-10.4
CCOC(=O)Cc1csc(N/N=C/c2ccc(C(F)(F)F)cc2)n1	·	-5.8	-0.5	-22.4	-2.7
CC1(C)CC(=O)C(C=Nc2cccnc2)=C(O)C1	2.3%	7.8	-0.5	-7.5	-1.0
COc1cc(CNCCN2CCOCC2)ccc1OCc1ccccc1Cl	3.0%	5.2	-3.0	-19.1	-16.1
CC(NC(=O)/C(=C\c1ccco1)NC(=O)c1ccco1)C(=O)O (centres undefined)	·	-3.9	-2.2	·	·
CC(=O)c1cc(F)c(N2CCN(CCC#N)CC2)cc1C	19.4%	-6.5	0.9	-27.0	10.4	Arbovirus anti repeat=2.1
Cn1nc(C(=O)Nc2cccc(C(F)(F)F)c2)ccc1=O	5.8%	-2.8	·	-14.3	-0.5
Cc1cc(C)c[n+](CC(=O)c2cc3ccccc3oc2=O)c1	-4.0%	-5.0	1.1	-20.9	7.7
COc1ccc(CN2CC(C(=O)NCCc3ccc(Cl)cc3)CC2=O)cc1 (centres undefined)	·	-3.8	-0.1	·	·
O=C(COC(=O)CCCOc1ccc(Cl)cc1Cl)NCc1ccccc1	-3.1%	-4.3	4.7	-16.9	-5.9
Cn1ncc2c(=O)n(/N=C/c3ccccc3)cnc21	6.9%	3.7	-0.9	-22.2	5.8
Cc1ccccc1OC(C)C(=O)NCCC1=CCCCC1 (centres undefined)	·	-9.5	4.6	·	·
Nc1c(Cl)nc(-c2ccccc2)nc1Cl	0.4%	2.3	1.0	·	-3.1
CN1C(=O)Cc2cc(S(=O)(=O)NCc3c(F)cccc3Cl)ccc21	·	4.9	11.5	·	·
O=C(/C=C/c1ccc2c(c1)OCO2)NCC1CCCO1 (centres undefined)	2.4%	-4.2	-3.3	·	-7.3
CCOc1ccc(N2CC(C(=O)NCCN3C(=O)S/C(=C\c4ccc(OC)c(OC)c4)C3=O)CC2=O)cc1 (centres undefined)	0.9%	-2.3	-4.5	-11.4	-19.1
Cc1ccccc1C(=O)N=c1c(C#N)cc2c(=O)n3cccc(C)c3nc2n1Cc1ccco1	·	2.8	0.0	11.8	0.9
Cc1cc(C)cc(-n2ncc3c2CCCC3NC(=O)c2ccccc2N2CCOCC2)c1 (centres undefined)	·	6.8	5.5	·	·
CC(=O)COc1cc2c(-c3cc4ccccc4o3)cc(=O)oc2cc1C	·	2.2	0.0	·	·
NC(=O)c1csc(-c2ccncc2)n1	-0.9%	0.1	1.4	-29.0	2.9
COCCn1c(SCC(=O)Nc2ccc(S(=O)(=O)N(C)C)cc2)nc2ccccc21	2.7%	-10.7	0.4	-13.3	3.1
CCC(c1nnnn1Cc1ccccc1)N1CCN(c2ccccc2)CC1 (centres undefined)	-3.7%	5.8	0.8	·	-14.4
CC1CN(C(=O)c2cccn(Cc3c(Cl)cccc3Cl)c2=O)CC(C)O1 (centres undefined)	2.9%	-4.0	2.5	·	1.5
CCOc1ccc(/C=C/C(=O)c2c(O)c3ccccc3oc2=O)cc1	·	79.0	-35.9	32.3	0.2
O=C(O)C(C(O)c1ccc([N+](=O)[O-])cc1)[n+]1ccccc1 (centres undefined)	·	4.1	-2.1	·	·
Cc1nc(NC(=O)/C=C/c2ccccc2)sc1C(=O)N(C)C	-8.4%	5.8	3.5	-29.4	3.4

Some of the compounds tested (hit frequency here may not be typical).
